CSC inhib = cancer stem cell viability inhibitors, primary screen, luminescence; cancer stem cell-like cells viability; inhibition, % at 7.5 µM; 1.1% of 300,000 active;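 active = mean at 75% or more and at least half the replicates too; inconclusive = mean and replicates disagree; tested in HMLE shEcad cells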;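 also: 0% = median of negative and 100% = median of positive control wells; the first replicate is given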
Env fusion inh = inhibitors of HIV-1 Env-driven cell-cell fusion, primary screen, HeLa-JRFL effector, CEM21 target cells, luciferase. inhibition, % at 12.3 µM. 1.1% of 360,000 active. AID 651610, 2012;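 active = mean replicate inhibition score of at least 50 and every replicate individually at or above 50; inconclusive = only one of the two criteria met; inactive = mean below 50 and not all replicates reaching 50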;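 also: 0% = plate neutral controls and 100% = maraviroc near 300 nM; one replicate is shown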
MT1-MMP act inh = blockers of MT1-MMP proenzyme processing, primary screen, HT1080 RFP-PRO-GFP cells, GFP/RFP fluorescence; Matrix metalloproteinase-14 (Homo sapiens), P50281; 0.061% of 360,000 active; GFP/RFP ratio change, % at 20 µM; GFP/RFP ratio fluorescence, overnight; percent of plate control window, DMSO zero;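 active = GFP/RFP ratio change of at least 30% with cell ATP level not reduced by more than half and red fluorescence within 50% of control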; also: strong numbers were not always called active
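Assay system: RFP-PRO-GFP reporter HT1080 cells; read-out basis: GFP/RFP fluorescence ratio; benchmarks: DMSO wells and RFP-L50D-GFP cells; doses: 20 µM single dose, 1% DMSO; schedule: overnight cell settling, then overnight compound exposure, 37 °C, 5% CO2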
Rce1 inh = yeast Rce1p protease inhibitors, primary screen, biochemical, fluorescence, cell-free homogeneous; CAAX prenyl protease 2 (Saccharomyces cerevisiae (strain ATCC 204508 / S288c)), Q03530; yeast membranes, quenched prenylated peptide cleavage fluorescence; calls only; 0.27% of 290,000 active; AID 2563, 2010;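 active = fall in fluorescence gain of 50% or more versus controls, with final raw signal at or below 3038400; inconclusive = same 50% fall but final raw signal above 3038400; inactive = fall in fluorescence gain under 50%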;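 also: plate controls were neutral control wells for no effect and wells lacking membranes for full effect; tested at 10 µM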
Target sequence (Q03530 whole entry, looked up): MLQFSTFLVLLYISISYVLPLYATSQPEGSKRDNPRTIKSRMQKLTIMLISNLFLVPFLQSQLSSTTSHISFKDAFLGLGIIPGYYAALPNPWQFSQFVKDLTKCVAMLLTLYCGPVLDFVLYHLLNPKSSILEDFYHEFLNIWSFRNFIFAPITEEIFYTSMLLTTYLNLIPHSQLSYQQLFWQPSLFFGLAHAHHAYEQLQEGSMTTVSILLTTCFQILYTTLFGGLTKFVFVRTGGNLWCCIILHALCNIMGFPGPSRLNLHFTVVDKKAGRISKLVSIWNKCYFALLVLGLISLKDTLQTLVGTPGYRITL
eIF4H FP inh = human eIF4H binding inhibitors, primary screen, translation initiation inhibitor project, biochemical, uHTS, fluorescence polarization. inhibition, % at 35 µM. Eukaryotic translation initiation factor 4H (Homo sapiens), Q15056. eIF4H fluorescence polarization binding assay. AID 2012, 2009. 0.94% of 290,000 active;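 active = 50% or more with normal probe brightness, or confirmed in later tests; inconclusive = above 50% with abnormal brightness, or retests that disagree; inactive = below 50% or failed in later tests; about a fifth of its hits are not listed in these tables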;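 also: calls also rest on retests at 20 µM and on dose response follow-up; 0% = protein and probe with vehicle and 100% = probe without protein; strong numbers were not always called active; many hits fall short of the cut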
PABP polyA inh = PABP poly(A) RNA binding inhibitors, primary screen, biochemical, fluorescence polarization, uHTS. Polyadenylate-binding protein 1 (Homo sapiens), P11940. inhibition, % at 35 µM. 1% of 290,000 active;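 active = 50% or more with normal probe brightness, or confirmed in later tests; inconclusive = above 50% with abnormal brightness, or retests that disagree; inactive = below 50% or failed in later tests; about a fifth of its hits are not listed in these tables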;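 also: calls also rest on retests at 20 µM and on dose response follow-up; controls were probe without protein and protein plus probe with vehicle; some compounds called inactive have numbers as strong as hits; many hits fall short of the cut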
Target sequence (P11940 whole entry, looked up): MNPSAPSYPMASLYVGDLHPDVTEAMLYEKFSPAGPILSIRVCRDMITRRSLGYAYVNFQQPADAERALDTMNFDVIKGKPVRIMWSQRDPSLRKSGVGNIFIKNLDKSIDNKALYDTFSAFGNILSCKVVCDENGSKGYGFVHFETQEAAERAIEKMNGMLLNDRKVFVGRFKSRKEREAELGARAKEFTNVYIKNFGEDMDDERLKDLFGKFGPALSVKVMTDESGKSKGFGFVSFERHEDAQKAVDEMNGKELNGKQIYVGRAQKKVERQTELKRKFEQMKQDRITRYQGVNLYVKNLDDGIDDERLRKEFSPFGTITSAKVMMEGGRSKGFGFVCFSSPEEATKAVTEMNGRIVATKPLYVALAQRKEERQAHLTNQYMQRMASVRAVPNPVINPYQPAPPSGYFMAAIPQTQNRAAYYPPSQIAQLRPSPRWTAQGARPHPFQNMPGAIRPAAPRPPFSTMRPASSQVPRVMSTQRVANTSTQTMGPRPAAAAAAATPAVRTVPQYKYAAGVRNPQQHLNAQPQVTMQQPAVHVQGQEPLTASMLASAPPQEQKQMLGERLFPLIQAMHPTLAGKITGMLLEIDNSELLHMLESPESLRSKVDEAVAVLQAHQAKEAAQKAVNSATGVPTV
Yeast UUG start = modulators of yeast start codon fidelity, primary screen, whole organism, S. cerevisiae, single point, plate reader. S. cerevisiae UUG-firefly luciferase reporter, luminescence/redox ratio. activity score, % at 18.7 µM. 0.13% of 350,000 active;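 active = replicate mean at a twofold rise or more, about +100% in these data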;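 also: firefly luciferase made from a UUG start codon reports start codon fidelity; reporter light over untreated wells divided by growth signal over untreated wells; some hits fall short of that in this replicate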
MT1-MMP act inh RFP = further read-out of MT1-MMP act inh, marked with its call; RFP signal change, %; measured here: RFP expression control read;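 0 = vehicle wells; hits needed this value within 50% of zero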
Numbers without * were called inactive; i = inactive; ? = inconclusive; nt = not tested or not shown; & = joins results of further samples. Only part of the results is shown (hit frequency here may not be typical).

SMILES	CSC inhib	Env fusion inh	MT1-MMP act inh	MT1-MMP act inh RFP	Rce1 inh	eIF4H FP inh	PABP polyA inh	Yeast UUG start
Cc1cccc(C(=O)NNC(=O)C2CCCO2)c1 (configuration not stated)	9	-25	-1	1	i	6	-15	-14
COC(=O)c1sccc1NC(=O)c1ccc(Cl)s1	-4	nt	-5	3	i	-12	-7	-13
CC(Oc1ccc2c(-c3ccccc3)cc(=O)oc2c1)C(=O)O (configuration not stated)	-7	nt	2	4	i	5	6	-6
COc1ccc(NC(=O)CN(c2cccc(C(F)(F)F)c2)S(C)(=O)=O)cc1OC	-2	?	1	-1	i	-8	1	1
Cc1ccc(S(=O)(=O)Nc2nc3ccccc3nc2Nc2cccc(S(=O)(=O)N3CCCC3)c2)cc1	114*	38	-38	-31	i	?	?	nt
CC(C)N(Cc1ccccc1)C(=O)CN1C(=O)NC2(CCCc3ccccc32)C1=O (configuration not stated)	0	-6	-1	-3	i	-11	-6	-8
CN(Cc1c(F)cccc1Cl)C(=O)C1CC(=O)N(CCc2ccccc2)C1 (configuration not stated)	-3	16	-2	5	i	-5	6	nt
O=C(COc1ccc(S(=O)(=O)NC2CCCCC2)cc1)NCc1cccnc1	-2	nt	3	-2	i	4	7	-9
O=C(CC1Nc2ccccc2NC1=O)NCCCN1CCCCCC1 (configuration not stated)	3	nt	0	4	i	4	0	6
O=C(c1cc(S(=O)(=O)NCc2ccco2)ccc1Br)N1CCOCC1	-8	-39	-1	2	nt	nt	nt	-13
COC(=O)C1=C(C)N(Cc2ccco2)C(=O)N[C@H]1c1ccc(Br)cc1	-12	nt	nt	nt	i	-4	10	nt
COc1ccc(OC)c(/C=N/NC(=O)C(=O)N/N=C/c2cc(OC)ccc2OC)c1	3	1	-1	7	i	nt	nt	19
Cn1nccc1NC(=O)Nc1cccc(Cl)c1	-7	-15	2	-1	i	-6	-4	-9
Clc1ccc(Nc2ccc(-n3ccnc3)nn2)cc1Cl	8	nt	-5	-13	i	8	-8	-21
Cc1cccc(N(C(=O)c2csnn2)C(C(=O)NC2CCCCC2)c2ccncc2)c1 (configuration not stated)	59	37	-3	-3	i	-7	0	-20
O=c1[nH]c(CN2CCCCC2)nc2c1C1(CCCCC1)Cc1ccccc1-2	45	nt	0	-6	i	-2	11	-25
Cc1cccc(NC(=S)N2CCC(C(=O)c3ccc(F)cc3)CC2)c1	nt	-6	7	0	nt	nt	nt	-27
O=C(O)c1ccccc1NCc1ccco1	-10	5	-4	6	i	1	15	-17
COc1ccc(CN2CCN(C(=O)c3ccco3)CC2)cc1OCc1ccccc1	1	nt	2	-4	i	10	13	-1
O=C(COC(=O)/C=C/c1ccc(Br)o1)Nc1ccccc1F	-13	nt	nt	nt	i	42	-6	nt
Cc1cccn2c(=O)nc(SCC(=O)N3CCCC3)nc12	0	2	6	3	i	nt	nt	nt
COC(=O)CCC(C)N1CCC(Oc2ccc(C(=O)N3CCCC3)cc2)CC1 (configuration not stated)	3	-10	-3	1	i	-6	-9	-18
C/C(=C/Cc1c(O)cc2oc(C)cc(=O)c2c1O)COC1OC(CO)C(O)C(O)C1O (configuration not stated)	5	11	9	7	nt	6	7	-11
O=C(NC(=S)Nc1nc(-c2ccc(Cl)cc2)cs1)c1cccs1	14	-5	1	2	i	-4	-15	nt
CCCC1(C(=O)OC)NC(c2cccc(F)c2)C2C(=O)N(CC)C(=O)C21 (configuration not stated)	-10	-22	7	9	i	-2	-4	-4
Continued.
SMILES	CSC inhib	Env fusion inh	MT1-MMP act inh	MT1-MMP act inh RFP	Rce1 inh	eIF4H FP inh	PABP polyA inh	Yeast UUG start
NC(N)=Nc1nc(C2COc3ccccc3O2)cs1 (configuration not stated)	1	-82	3	-10	nt	4	1	nt
COCCn1c(SCC(=O)Nc2ccc(NC(=O)c3ccco3)c(OC)c2)nc2ccccc2c1=O	-7	nt	3	-5	i	-2	2	-10
COCCNC(=O)c1onc(CSc2ccc(Cl)cc2)c1C(=O)O	5	0	4	2	i	-8	-1	3
O=C(Nc1ccc(S(=O)(=O)Nc2cnc3ccccc3n2)cc1)c1ccc(Cl)cc1Cl	1	-9	3	-14	i	nt	nt	-6
CN1c2ccccc2N(C)C1c1c(O)ccc2ccccc12	-3	30	3	-4	i	-6	-9	-9
Cc1cccc(C)c1Nc1nnc(SCc2cn3cccc(C)c3n2)s1	-1	-1	0	-1	i	-6	1	nt
Cc1nc2ccc(S(=O)(=O)NC(C(=O)NCc3ccc4c(c3)OCO4)C(C)C)cc2s1 (configuration not stated)	7	-2	-3	2	i	6	3	1
CCN(CC)CC(O)CN1c2ccccc2Sc2ccccc21 (configuration not stated)	-16	-1	-8	-2	i	-9	-6	-5
COc1ccc(CNC(=O)COC(=O)CCCOc2ccc(Cl)cc2Cl)cc1OC	-10	nt	-2	0	i	3	5	-13
CSc1ncccc1C(=O)OCC(=O)NCCC1=CCCCC1	-8	1	-7	0	i	nt	nt	-9
CCCCN(C)CCCNC(=O)c1ccc2c(c1)N(CC)C(=O)c1ccccc1S2=O (configuration not stated)	-8	9	-6	0	i	-12	-6	-10
CCOc1cc(C)nc(NCc2ccccc2)n1	22	-272	2	2	i	-2	0	-28
COc1cccc(-n2nc(C(=O)NCC3CCCO3)c3ccccc3c2=O)c1 (configuration not stated)	1	-8	0	6	i	-1	4	-10
COc1ccccc1NC(=O)/C=C/c1cc([N+](=O)[O-])ccc1OC(F)F	2	14	-2	-1	i	?	?	-11
COCCSc1nc2c(c(=O)[nH]c(=O)n2C)n1CCC(C)C	-1	29	1	2	i	-4	-3	-1
CCNc1nc(Oc2ccc(C#N)cc2)cc(C(F)(F)F)n1	-3	46	-14	-11	i	-9	-4	nt
c1ccc(Oc2cccc(Oc3ccccc3)n2)cc1	4	-3	0	2	i	nt	nt	-7
CC1=C(C)CS(=O)N(c2ccc(S(N)(=O)=O)cc2)C1 (configuration not stated)	-12	-40	4	0	i	-4	2	-5
CCN1C(C)=C(C)S/C1=C1\SC(=S)N(N)C1=O	nt	-10	0	2	i	2	13	nt
O=C(CSc1ccccc1)Nc1cccnc1	-6	-27	2	-8	i	-11	2	-6
CC(C)(C)c1ccc(COn2ccnc2)cc1	-6	8	0	0	i	-8	-5	nt
COc1ccc(S(=O)(=O)N2CCC(C(=O)N[C@@H](C)C(=O)NCc3ccncc3)CC2)cc1	-2	14	-2	0	i	6	6	-13
NC(=O)c1cccc(-c2noc(-c3ccccc3F)n2)c1	-6	-203	1	3	nt	nt	nt	-12
O=C(Nc1cc(S(=O)(=O)N2CCOCC2)ccc1N1CCCC1)c1ccccc1F	nt	7	0	3	nt	nt	nt	0
COC(=O)CSc1nnc(-c2cccnc2)n1-c1cccc(OC)c1	-4	nt	4	3	i	-8	0	-1
Further structures
SMILES	CSC inhib	Env fusion inh	MT1-MMP act inh	MT1-MMP act inh RFP	Rce1 inh	eIF4H FP inh	PABP polyA inh	Yeast UUG start
COC(=O)c1ccc(OCC2c3cc(OC)c(OC)cc3CCN2C(C)=O)cc1 (configuration not stated)	-1	14	0	-11	i	-16	-24	17
Cc1ccc(S(=O)(=O)C(C#N)c2nc3ccccc3nc2N2CCCC2)cc1C (configuration not stated)	7	-39	-26	10	nt	?	?	-8
Cc1c(Cl)cccc1NC(=O)CSCc1cc(=O)[nH][nH]1	-12	44	20	7	i	3	-1	nt
Cc1c(-c2ccccc2)oc2c(C(=O)N3CCN(c4ccccc4F)CC3)cccc2c1=O	-5	-151	-12	-17	i	1	-1	7
Cn1c(=O)c2c(ncn2CC(=O)N/N=C/c2cn[nH]c2-c2ccc(F)cc2)n(C)c1=O	-7	8	1	1	i	1	4	-9
C/C(CCC(C)C)=N\Nc1cc(C)c2ccccc2n1	1	-29	1	5	nt	-3	2	nt
CCn1c(COc2ccc(C)cc2)nnc1SCC(=O)C(C)(C)C	-7	nt	12	-4	i	-6	-4	-15
O=C1CCN(C(=S)NCCc2ccccc2)CC1	nt	8	4	1	i	1	-6	-8
Cc1cccc(S(=O)(=O)NC(=O)C2(C)CCN2C(=O)Cc2ccc(-c3ccccc3)cc2)c1 (configuration not stated)	nt	-5	2	1	nt	nt	nt	13
O=C(NCc1ccccc1)NCC12CC3CC(CC(C3)C1)C2	-10	26	1	-1	i	0	0	48
Cc1ccc(C(=O)Nc2cccc(C(F)(F)F)c2)cc1NC(=O)c1csc(-c2ccncc2)n1	-14	nt	-6&-4	-6&-9	i	-5	6	11&-8
O=c1c2c3nc4ccccc4nc3n(CCN3CCOCC3)c2ncn1CCN1CCOCC1	nt	-14	17	7	nt	nt	nt	-13
C[C@]12c3[nH]c4ccc(Cl)cc4c3CCN1C(=O)[C@@H](CC(=O)NCCN1CCOCC1)C[C@@H]2C(=O)N1CCOCC1	nt	2	1	3	nt	nt	nt	-20
Cc1ccc(-n2[nH]c(=O)c(-c3ccccn3)c2C)cc1	-13	39	4	7	nt	-7	-11	nt
C=CCn1c(SCC#N)nc2sc(CC)cc2c1=O	nt	13	1	0	i	-1	10	11
Cc1csc(SCc2nnc(-c3ccc(Cl)cc3)o2)n1	-2	nt	2	1	i	-1	-6	nt
Cc1ccc2nc(SCC(=O)Nc3ccc4[nH]c(=O)[nH]c4c3)[nH]c2c1	nt	-67	5	6	nt	nt	nt	-14
O=C(NCCc1cccc(F)c1)C1CC(O)CN1C(=O)Nc1ccccc1 (configuration not stated)	nt	-25	-5	5	nt	nt	nt	-12
O=C(NC(c1ccccc1)c1ccccc1)C1CCCC1	-9	-14	-5	-6	i	-4	-16	-6
Cc1onc(-c2ccccc2Cl)c1C(=O)N1CCC(C(N)=O)CC1	nt	8	4	6	i	-2	6	-1
COC(=O)c1cc2sccc2n1CC(=O)N1CCCc2ccccc21	-21	43	1	1	i	-13	4	-3
Cc1cc(C(=O)NNC(=O)Nc2cccc(C(F)(F)F)c2)no1	-4	-2	1	6	i	8	4	nt
O=C1CNC(=O)c2c(nc3n2CCC3)N1	-13	nt	5	3	i	5	5	-3
COc1nccnc1NS(=O)(=O)c1ccc(NC(=S)NC(=O)c2ccccc2F)cc1	9	-3	4	3	i	-3	-4	nt
O=C(Nc1cccnc1)c1ccc(Cl)cc1[N+](=O)[O-]	-7	18	-3	-1	i	1	1	-5
Next compounds follow:
SMILES	CSC inhib	Env fusion inh	MT1-MMP act inh	MT1-MMP act inh RFP	Rce1 inh	eIF4H FP inh	PABP polyA inh	Yeast UUG start
Cc1csc(N(C(=O)CCNC(=O)c2ccc([N+](=O)[O-])cc2)c2ccccc2)n1	9	-25	-1	-3	i	-7	-4	nt
CCN1CCN(c2ccc(S(=O)(=O)N3CCOCC3)cc2N)CC1	-3	8	-4	3	nt	nt	nt	-1
N/C(=N\OC(=O)c1ccc([N+](=O)[O-])cc1Cl)c1ccccn1	6	-162	1	-3	i	0	0	-87
O=C(O)c1ccc2c(c1)ncn2C1CCCCCC1	10	nt	2	4	i	2	1	-10
Cc1c(/C=C2\SC(=O)N(CC(=O)Nc3ccc4c(c3)OCO4)C2=O)c2ccccc2n1C	17	nt	2	-2	i	4	1	-5
COc1cc(NC(=S)Nc2ccc(N(C)C(C)=O)cc2)cc(OC)c1	-7	18	0	0	i	1	-8	nt
Cc1ccc(S(=O)(=O)NNC(=S)Nc2cccc(C)c2C)cc1	-12	12	0	6	i	2	4	-34
c1coc(-c2nnc(-c3cccs3)o2)c1	-3	-157	5	4	nt	-9	5	-17
CCNC(=S)N(CCc1c(C)[nH]c2ccc(OC)cc12)Cc1cccnc1	0	7	-7	-4	i	1	-2	-12
